KCNQ2 pot = potentiators of rat KCNQ2 potassium channel; 310,000 compounds, 0.54% hits; CHO-K1 KCNQ2, FluxOR thallium flux fluorescence; stronger effect = higher value; Potassium voltage-gated channel subfamily KQT member 2 (Rattus norvegicus), O88943; AID 2239, 2010; B-score at 10 µM;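 active means fluorescence ratio B-score at least 3 SD of library B-scores, with initial fluorescence B-score within 3 SD, cut at about 5.3 in these data; same plate scores as AID 2156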;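 further: B-score of peak minus minimum over baseline fluorescence ratio after K+ and Tl+ stimulus; positive B-score means potentiation of KCNQ2 with more thallium influx and brighter signal; only the inactives scoring about 0 or higher are listed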
Target sequence (O88943 whole entry, looked up): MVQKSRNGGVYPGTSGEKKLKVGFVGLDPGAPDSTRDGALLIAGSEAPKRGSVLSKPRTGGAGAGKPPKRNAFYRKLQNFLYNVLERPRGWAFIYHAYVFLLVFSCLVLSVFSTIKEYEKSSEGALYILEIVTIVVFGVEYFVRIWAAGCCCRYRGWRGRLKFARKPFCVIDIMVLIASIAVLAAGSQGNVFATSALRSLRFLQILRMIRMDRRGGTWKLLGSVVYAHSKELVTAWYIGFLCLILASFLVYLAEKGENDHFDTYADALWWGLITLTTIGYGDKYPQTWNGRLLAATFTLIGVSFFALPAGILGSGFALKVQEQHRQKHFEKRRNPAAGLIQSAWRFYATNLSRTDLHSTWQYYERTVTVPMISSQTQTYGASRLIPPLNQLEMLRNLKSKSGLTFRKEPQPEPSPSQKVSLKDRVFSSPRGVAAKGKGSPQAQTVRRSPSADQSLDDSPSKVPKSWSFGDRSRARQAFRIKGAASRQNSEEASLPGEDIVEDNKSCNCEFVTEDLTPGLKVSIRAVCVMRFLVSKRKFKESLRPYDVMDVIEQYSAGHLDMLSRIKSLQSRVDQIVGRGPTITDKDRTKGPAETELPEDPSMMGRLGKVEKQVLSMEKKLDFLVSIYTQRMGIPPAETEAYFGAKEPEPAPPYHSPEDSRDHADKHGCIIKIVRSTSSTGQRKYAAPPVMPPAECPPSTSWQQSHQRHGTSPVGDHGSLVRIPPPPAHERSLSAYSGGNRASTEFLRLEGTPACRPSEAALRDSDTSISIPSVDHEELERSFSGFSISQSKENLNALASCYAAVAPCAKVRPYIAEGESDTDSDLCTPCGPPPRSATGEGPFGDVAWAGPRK
KCNQ2 pot baseline = recorded beside KCNQ2 pot, whose call it bears; B-score; compound at 10 µM; measured here: initial fluorescence intensity artifact check;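 brightness before thallium and not channel activity; 0 = typical well and far values either way flag optical interference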
Starred values were filed as active, the others as inactive. Only part of the results is shown; rates above refer to the full screens.

KCNQ2 pot	KCNQ2 pot baseline	smiles
0.09	-0.18	COc1ccccc1NCCC(=O)O
0.47	0.32	CCc1nnc(NC(=O)CCC(=O)NC2CCCCCC2)s1
0.41	0.79	Cc1cnc(C(=O)Nc2ccc(OC(F)(F)F)cc2)cn1
0.22	-0.16	CCc1nc(SCc2ccc(F)cc2)n[nH]1
0.09	1.4	Cc1ccc(Cn2cnc3ccccc32)cc1
1.3	-1.1	CC1CCCC(C)N1C(=O)CSc1nnc(COc2ccc(F)cc2)o1 (stereo not drawn)
0.96	-1.5	O=C(N/N=C/c1ccc(N2CCOCC2)cc1)c1ccccn1
1.9	0.51	O=C(NCCCN1CCCC1=O)c1nnc(Cc2c(F)cccc2Cl)o1
0.47	0.24	CC1CCc2c(sc(NC(=O)CSc3ncn[nH]3)c2C#N)C1 (stereo not drawn)
0.71	-1.2	Cc1nc(NCc2ccco2)c2c(C)c(C)sc2n1
0.42	-1.4	O=C(NCc1ccco1)c1ccccc1NC(=O)C1CC(=O)N(c2ccc(Cl)cc2)C1 (stereo not drawn)
1.3	1.1	C=CCn1c(SCC(=O)Nc2ccc(N3CCOCC3)cc2)nc2ccccc2c1=O

Quoted at random: 2 records from the list.
KCNQ2 pot	KCNQ2 pot baseline	smiles
1.9	0.51	O=C(NCCCN1CCCC1=O)c1nnc(Cc2c(F)cccc2Cl)o1
1.3	-1.1	CC1CCCC(C)N1C(=O)CSc1nnc(COc2ccc(F)cc2)o1 (stereo not drawn)

3 entries already listed, ordered by the number in KCNQ2 pot baseline, highest first.
Compound | KCNQ2 pot baseline
C=CCn1c(SCC(=O)Nc2ccc(N3CCOCC3)cc2)nc2ccccc2c1=O | 1.1
Cc1cnc(C(=O)Nc2ccc(OC(F)(F)F)cc2)cn1 | 0.79
CC1CCCC(C)N1C(=O)CSc1nnc(COc2ccc(F)cc2)o1 (stereo not drawn) | -1.1

Following part:
KCNQ2 pot	KCNQ2 pot baseline	smiles
0.9	-1.5	COc1ccc(NC(=O)CCCc2ccccc2)cc1OC
0.38	0.98	Cc1onc(C(=O)NN)c1C(=O)Nc1ncc(C(F)(F)F)cc1Cl
1.1	-0.37	COc1ccc(CNC(=O)C(OC(C)=O)c2ccccn2)cc1 (stereo not drawn)
2.4	-0.04	COc1ccc(-n2nnc3c(=O)n(C/C=C/c4ccccc4)cnc32)cc1
4.2	0.12	CC(C)N(Cc1ccccc1)C(=S)NC(=O)C1(C)CC1(Cl)Cl (stereo not drawn)
0.45	1.1	CN1CCN(S(=O)(=O)c2ccc(NC(=O)C3CCCO3)cc2)CC1 (stereo not drawn)
0.71	0.85	CCc1ccc(/C=N/NC(=O)Cc2cccn2C)cc1
0.04	-0.72	COc1ccc2c(c1)CC[C@@H]1[C@@H]2CC[C@]2(C)[C@@H](C(=O)O)C[C@@H]12
0.28	0.74	Cc1nn(-c2ccccc2)cc1/C=N/O
0.24	-0.87	O=C(CCc1nc(-c2ccccc2Cl)no1)NCC1CCCO1 (stereo not drawn)
0.62	-0.97	O=C(CCN1CCCCC1)Nc1ccc(Br)cc1
0.71	-1.4	Cc1nnc(C)c2c(C)n(Cc3ccc4c(c3)OCO4)c(C)c12

Profiles from above.
Cc1onc(C(=O)NN)c1C(=O)Nc1ncc(C(F)(F)F)cc1Cl is listed with KCNQ2 pot: 0.38; KCNQ2 pot baseline: 0.98
CCc1ccc(/C=N/NC(=O)Cc2cccn2C)cc1 is listed with KCNQ2 pot: 0.71; KCNQ2 pot baseline: 0.85
CC(C)N(Cc1ccccc1)C(=S)NC(=O)C1(C)CC1(Cl)Cl (stereo not drawn) is listed with KCNQ2 pot: 4.2; KCNQ2 pot baseline: 0.12

Next section
KCNQ2 pot	KCNQ2 pot baseline	smiles
1.7	-1	CC(C)=CC(=O)N1CCCc2ccccc21
0.15	-0.08	Cc1ccc(-n2c(C)cc(C(=O)OCC(=O)N(C)C3CCS(=O)(=O)C3)c2C)cc1 (stereo not drawn)
1.1	-0.44	COc1cc(-c2noc(CCCC(=O)Nc3ccc(C(N)=O)cc3)n2)cc(OC)c1OC
0.29	-0.65	Cc1onc(-c2ccccc2)c1C(N)=O
2.3	-1.5	O=C(COc1ccc(S(=O)(=O)N2CCc3ccccc32)cc1Cl)NCc1ccccn1
0.19	-0.62	O=C(COC(=O)c1ccc[nH]c1=O)NC1CCCCC1
1.5	-1.2	C=CCn1nnc2sc3c(c2c1=O)CCC(C)C3 (stereo not drawn)
1.5	0.4	COc1ccc(C(C(=O)NC2CCCC2)N(C(=O)c2ccco2)c2cc3c(cc2C(C)=O)OCO3)cc1 (stereo not drawn)
0.82	-0.47	CC(C)C(c1nnnn1Cc1ccc(F)cc1)N1CCN(Cc2ccc3c(c2)OCO3)CC1 (stereo not drawn)
1.4	-0.04	O=C(/C=C/c1cccs1)NCc1cccnc1
0.67	-3	O=C(Nc1ccc([N+](=O)[O-])cc1)c1cc2ccccc2nc1Cl
0.16	-0.41	COc1ccc(C(=O)CN(Cc2ccccc2)C2=NCCS2)cc1
0.07	0.08	CCN(CC)c1ccc(C(=O)OCC(=O)N(C(C)C)C(C)C)cc1
0.3	0.53	Cc1ccc(C(=O)Nc2nncs2)cc1S(=O)(=O)N1CCOCC1
1	1.2	O=C(O)CCN1C(=O)CC(N2C(=O)/C(=C/c3ccc(Cl)cc3)SC2=S)C1=O (stereo not drawn)
0.81	0.91	COc1ccc(/C(N)=N/OC(=O)/C=C/c2ccccc2)cc1
0.27	-0.82	COC(=O)c1sccc1NC(=O)CC1C(=O)NCCN1C(=O)Nc1ccc(C(F)(F)F)cc1 (stereo not drawn)
0.65	0.03	CCOC(=O)C1=C(CN2CCc3ccccc32)NC(=O)NC1c1cc(C)ccc1C (stereo not drawn)
0.1	-0.16	CC(C)(C)C(=O)NNC(=O)CCCOc1ccc(Cl)cc1Cl
1.5	-0.41	COc1ccccc1N1CCN(CCCn2c(=S)[nH]c3ccccc3c2=O)CC1
0.01	-0.19	COC(=O)C(C)Sc1nc2c(c(=O)[nH]c(=O)n2C)n1CCCc1ccccc1 (stereo not drawn)
1.6	-0.3	COc1ccc(NC(=O)CSCC(=O)Nc2cccc(S(=O)(=O)N3CCCCCC3)c2)cc1
0.01	0.79	CC(=O)C1=C(C)Nc2ncnn2C1c1cccc(Br)c1 (stereo not drawn)
0.61	-0.35	O=c1cc(CO)oc(CN2CCN(Cc3ccccc3)CC2)c1O
0.03	0.71	Cc1ccc(-c2nc(SC(C)C(=O)c3c(N)n(C)c(=O)n(C)c3=O)n[nH]2)cc1 (stereo not drawn)
1.6	-0.83	COc1ccc(-n2c(=O)cc(N3CCN(Cc4ccccc4)CC3)[nH]c2=O)cc1
2.4	-1.9	O=S(=O)(Nc1ccc(O)c2ccccc12)c1ccc(Br)cc1
0.54	-1.1	N#Cc1ccc(CSC2=NCCN2)cc1
0.09	-0.7	CCO[C@@H]1OC(C(=O)NC2CC2)=C[C@H](C2CC2)[C@H]1CCCO
0.7	-0.87	COCCN1Cc2cccc(C(=O)NCCCN3CCCC3=O)c2C1=O
1	0.48	CC(=O)Nc1ccc(CN2CCCC(CO)(Cc3ccccc3C)C2)cc1 (stereo not drawn)
0.05	0.93	Cn1ccnc1C1CCCCN1Cc1nc(Cc2cccc(C(F)(F)F)c2)no1 (stereo not drawn)
0.46	-2.3	Cc1ccc(S(=O)(=O)Nc2cc(=O)[nH]c3c2CCC3)cc1
0.99	-0.95	Cc1cc(NC(=O)COc2ccccc2C)no1
0.09	1	Cc1nnc(NC(=O)c2ccc(S(=O)(=O)N3CCCCCC3)cc2)o1
0.08	-1.7	Cc1noc(C)c1C(=O)N1CCC2(CC1)Oc1ccc(F)cc1C(=O)C21CC(c2ccc(Cl)cc2)=NO1 (stereo not drawn)
0.02	2.1	COc1ccc(Oc2nc(SC)nc3ccsc23)cc1
1.9	0.59	O=C(COc1ccc(C(=O)c2ccccc2)cc1)NC1CCCCCC1
0.32	0.97	Cc1ccc(CSc2nnc(Nc3ccc(C)cc3)s2)cc1
1.2	-0.06	CSc1ncc(CN2CCN(C3CCCC3)C(CCO)C2)cn1 (stereo not drawn)
2.5	-0.04	O=C(Nc1ccc2c(c1)OCCO2)C1CCCN(S(=O)(=O)c2cccs2)C1 (stereo not drawn)
0.68	-0.89	CCOc1nc(OCC)nc(-n2cc(-c3ccccc3)nn2)n1
2.3	-0.24	O=C(CN(c1ccccc1)S(=O)(=O)c1ccccc1[N+](=O)[O-])N1CCCC1
3.9	0.45	CC(NC(=O)C12CC3CC(CC(C3)C1)C2)c1ccc2c(c1)OCCO2 (stereo not drawn)
0.54	-0.19	O=C(c1cccc(N2C(=O)C3C4C=CC(C4)C3C2=O)c1)N1CCN(c2ccccc2)CC1 (stereo not drawn)
0.61	-0.01	Cc1cc(NC(=O)CSc2nc3c(C)ccc(C)c3cc2C#N)no1
1.1	-0.97	O=C(CCNS(=O)(=O)c1ccccc1)OCC(=O)c1ccc(Br)cc1
3.3	-0.58	NC(=O)CC(NC(=O)c1ccc(Br)cc1)c1ccc(NCc2ccc(F)c(F)c2)c([N+](=O)[O-])c1 (stereo not drawn)

Laid out differently: 4 of the compounds above.
SMILES | KCNQ2 pot | KCNQ2 pot baseline
CSc1ncc(CN2CCN(C3CCCC3)C(CCO)C2)cn1 (stereo not drawn) | 1.2 | -0.06
O=C(Nc1ccc2c(c1)OCCO2)C1CCCN(S(=O)(=O)c2cccs2)C1 (stereo not drawn) | 2.5 | -0.04
CCOc1nc(OCC)nc(-n2cc(-c3ccccc3)nn2)n1 | 0.68 | -0.89
O=C(CN(c1ccccc1)S(=O)(=O)c1ccccc1[N+](=O)[O-])N1CCCC1 | 2.3 | -0.24

Following part.
KCNQ2 pot	KCNQ2 pot baseline	smiles
0.22	-0.51	CN1CCN(C2=CC(=O)OC23CCCCC3)CC1
2.1	0.26	CCOC(=O)C1CCCCN1Cc1cccc(OC)c1OC (stereo not drawn)
1.6	-0.58	O=C(O)c1ccccc1C(=O)Nc1ccc(Br)c(C(F)(F)F)c1
0.36	2.5	CC(/C=N/NC(=O)CNc1n[nH]c(=O)[nH]c1=O)c1ccccc1 (stereo not drawn)
1.4	0.52	O=C(NNS(=O)(=O)c1ccccc1[N+](=O)[O-])c1ccc(O)cc1
1.6	-0.07	COC(=O)c1ccc(/C=C/c2c(-c3ccsc3)sc3ccccc23)cc1
0.48	-0.2	Cc1ccc(NC(=O)C2CCCN(C(=O)c3ccc(Cl)cc3)C2)cc1S(=O)(=O)N1CCOCC1 (stereo not drawn)
0.71	1.6	CN(CCc1ccccc1)C(=O)CCc1nnc(Cc2ccc3c(c2)OCO3)o1
0.05	0.36	COc1ccc(Cl)cc1NC(=O)NNC(=O)c1ccccn1
0.63	-0.94	COc1ccccc1N1CCN(C(=O)CSc2nnc3c4ccccc4nc(Cc4ccccc4)n23)CC1
0.67	-0.89	CCCCn1c(SCC(=O)N2CCCC2)nnc1-c1ccccc1
0.63	-0.3	Cc1onc(-c2ccccc2)c1-c1n[nH]c(=S)n1-c1ccccc1
0.57	-0.62	COc1ccc(NC(=O)c2cnn(-c3ccccc3)c2C)c(OC)c1
0.01	0.48	CC(C)CC(=O)Nc1nnc(SCC(=O)Nc2ccc3c(c2)OCO3)s1
2.4	0.93	Cc1cc(C)cc(N=Cc2ccc([N+](=O)[O-])s2)c1
0.61	0.14	N#CC1=C(N)Oc2c(oc(CO)cc2=O)C1c1ccsc1 (stereo not drawn)
0.72	-0.41	COc1ccc(C(=O)O)cc1S(=O)(=O)Nc1ccccc1-c1ccccc1
0.2	-0.84	O=C1c2cccnc2C(Nc2ccc(S(=O)(=O)N3CCCCCC3)cc2)N1Cc1ccccc1 (stereo not drawn)
0.5	2.9	CCN1CCN(C(=O)Cn2ncc3c2-c2ccccc2OC3)CC1
0.87	0.06	COc1c(F)c(F)c(C(=O)Nc2ccc(N3CCN(C(C)=O)CC3)c(Cl)c2)c(F)c1F
0.28	-0.02	Cc1cc(C(C)(C)C)oc1C(=O)NCCCNC(=O)c1oc(C(C)(C)C)cc1C
1.7	-0.03	CCC1(C)Cc2c(C#N)c(SC)nc(N3CCOCC3)c2CO1 (stereo not drawn)
0.1	1.8	CCN1C(=O)C(=O)N(Cc2ccc(OC)c(F)c2)C1=O
0.84	-2.2	Cn1c(=O)c(=O)n(C)c2cc(S(=O)(=O)N3CCCC3C(=O)NCc3ccco3)ccc21 (stereo not drawn)
1.5	2.1	CSc1nc(N2CCOCC2)c2sccc2n1
0.11	0.02	CC(C)N(CCn1c(=S)[nH]c2ccccc2c1=O)C(C)C
1.2	-0.8	CCOC(=O)c1c(CC(C)C)csc1/N=C/C1C(=O)CCCC1=O
0.34	-0.87	Cn1c(C(=O)N2CCCC(C(=O)NCCN3CCOCC3)C2)cc2sccc21 (stereo not drawn)
0.01	0	COc1cc(-c2nc(C(F)(F)F)c(OC)o2)cc(OC)c1OC
0.06	-0.99	COc1ccc(-n2nc(C(=O)NCC(=O)N3CC(C)CC(C)C3)c3ccccc3c2=O)c(OC)c1 (stereo not drawn)
2.9	-3.4	Cc1cc([N+](=O)[O-])nn1CCCC(=O)Nc1sc2c(c1C(N)=O)CCC(C)C2 (stereo not drawn)
4.7	1.1	Cc1ccc(-c2cc(C(=O)N/N=C/c3ccco3)[nH]n2)cc1
0.85	-0.05	Nc1ccc2oc(-c3cccc(Br)c3)nc2c1
0.04	-0.92	Cc1ccsc1/C=N/NC(=O)CNC(=O)c1ccco1
